High-throughput results: PubChem, several laboratories
Mtb hypoxia rep – inhibitors of hypoxia-regulated fluorescent reporter in Mycobacterium tuberculosis. fluorescence inhibition, % (test concentration not listed). AID 1159583. 300,000 tested, 0.1% active. M. tuberculosis hypoxia-regulated fluorescent reporter, fluorescence;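 active = 35 to 45% if threefold the growth effect, above 45% if 1.5-fold the growth effect; inactive = the rest, general growth blockers included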;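 also: wells of about 50 µL received 100 nL stock; 0% = vehicle wells and 100% = reference inhibitor wells; whole bacteria with a GFP reporter of the hypoxia response; strong numbers were not always called active; many hits fall short of the cut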
PrP 5UTR inh – suppresses PrP 5' UTR mRNA reporter expression | cell-based PrP 5' UTR mRNA reporter, plate reader | 340,000 tested, 0.35% active | AID 488862 | inhibition, % (no concentration beside the values);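 active = every replicate at 50% or more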;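 also: 0 = median of the neutral control wells; tested in H4 reporter cells; numbers are from one replicate; inactives centre near -14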
BJeLR lethal – kills HRASV12-expressing BJeLR cells | BJeLR (HRASV12) viability, CellTiter-Glo ATP luminescence, 48 h; reference of the scale not given here | inhibition, % (concentration not given with the values) | 300,000 tested, 0.17% active | AID 1554;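 active = replicate mean above 50%; inconclusive = above 50% but judged a plate artefact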;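 also: 50 nL library stock added to about 25 µL; numbers are from one replicate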
Sa ugtP lethal – growth inhibition of S. aureus ugtP deletion strain. S. aureus RN4220 ugtP deletion, OD600 growth, 16 h; some inactives read as strong as hits. growth inhibition, % (test concentration not listed). 330,000 tested, 0.54% active. AID 1259309;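 active = z-score under -3 and OD600 up to 0.15 on both plates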;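 also: plate controls were untreated wells for no effect and antibiotic for full effect; wells of about 80 µL received 100 nL stock; the first replicate is given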
Bead autofluor – counter-screen for toxin protease inhibitors: compound fluorescence; compound autofluorescence counterscreen, microsphere flow cytometry; hits give high values; fluorescence intensity (concentration not given with the values); 360,000 tested, 3.1% active; AID 624483;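 active = at least 3 SD above the mean of all compounds, about 16000 in these data; inconclusive = too few beads counted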;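 also: 100 nL of 1 mM stock went into each well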
Sa RN4220 lethal – S. aureus RN4220 growth inhibition. AID 1259311. OD600, 16 h. inhibition, % (test concentration not listed). 330,000 tested, 0.33% active;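 active = z-score of -3 or lower and OD600 up to 0.18 on both plates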;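 also: plate controls were untreated cells for no effect and reference antibiotic for full effect; stock transfer was 100 nL into about 80 µL; one replicate is shown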
Mtb hypoxia rep growth – recorded beside Mtb hypoxia rep, whose call it bears; growth inhibition, %; measured here: M. tuberculosis growth (absorbance);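 0% = vehicle and 100% = reference antibiotic; read after six days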
* marks the source's active call; other numbers are inactive results; ? = inconclusive; . = not tested or not shown; & = joins results of further samples.

SMILES	Mtb hypoxia rep	Mtb hypoxia rep growth	PrP 5UTR inh	BJeLR lethal	Sa ugtP lethal	Bead autofluor	Sa RN4220 lethal
Cc1ccc(CC(=O)NCC(c2ccco2)N(C)C)cc1C (configuration not stated)	-1.6	12.8	-5.8	5.6	8.4	4678	3.8
O=C(c1cccc([N+](=O)[O-])c1)N1CCOCC1	10.3	11.1	-23.2	-13.0	10.2	2139	-0.3
CCC(=O)N(Cc1ccccc1)c1ccccn1	8.7	10.4	-16.9	7.1	6.3	20782*	6.3
O=C(NCCNC(=O)c1ccc(Cl)cc1Cl)c1ccco1	5.4	-2.8	9.7	-3.9	9.4	3173	0.8
CSc1nc(N(C)NC(=O)c2ccccc2)c2ccccc2n1	14.6	10.9	-3.3	35.8	-1.6	2413	4.4
CC(C)CNC(=O)c1noc2c1CCCC2	8.3	6.6	-8.1	-14.0	7.5	5071	-1.4
CN(C)/C=C/C(=O)/C=C/c1ccc(Cl)cc1Cl	11.3	3.0	-8.7	-0.4	2.9	4267	4.2
Cc1ccc(C(=O)NCc2ccccc2F)cc1S(=O)(=O)N1CCCC1	13.8	6.7	-22.0	-16.3	17.6	3854	1.2
O=C(CSc1nc2ccccc2c(=O)n1-c1ccccc1Cl)NC1CCS(=O)(=O)C1 (configuration not stated)	-3.3	5.8	-12.0	.	-2.2	3863	-1.2
COc1ccc(-n2c(O)c(C=Nc3c(C)n(C)n(-c4ccccc4)c3=O)c(=O)[nH]c2=O)cc1	9.9	2.5	-14.6	-3.1	15.0	3526	1.1
N#CCC(=O)Nc1ccc(C(=O)OCC(=O)NNC(=O)c2ccc(Cl)cc2)cc1	3.8	12.3	-16.7	10.0	7.4	5754	-1.5
CN(C)S(=O)(=O)c1cccc(COC(=O)C2=COCCO2)c1	.	.	-10.5	-4.0	-2.4	3727	0.9
On1c(-c2ccccc2)nc2ccc(Cl)cc21	.	.	-53.9	0.9	5.4	6441	1.5
CC(C)CNC(=O)CSc1nc(-c2cccs2)cc(C(F)(F)F)n1	.	.	-5.5	6.2	-1.0	3637	-3.1
COc1ccc(S(=O)(=O)N2CCCC(C(=O)NCCc3ccccc3)C2)cc1 (configuration not stated)	4.6	2.0	-11.2	-8.4	2.0	5494	0.0
COc1ccc(C2=NOC(C(=O)NCc3ccco3)C2)cc1OC (configuration not stated)	4.9	6.8	-31.0	15.6	-0.1	21175*	0.3
Cc1cc(C)cc(NC(=O)CCn2ccnc2C)c1	.	.	-12.8	3.5	-0.6	2129	4.1
CCCCN(C(=O)CSc1nnc2ccccn12)c1c(N)n(Cc2ccccc2)c(=O)[nH]c1=O	-2.0	-4.1	-16.8	-1.8	-3.0	2100	1.6
O=C(CSCc1cnn(-c2ccccc2)c1-n1cccc1)NCc1ccc2c(c1)OCO2	5.9	5.7	3.4	-2.6	-2.2	2457	-15.5
Cc1noc(C)c1COc1ccc(C(=O)N2CCN(S(=O)(=O)c3ccc(Cl)cc3)CC2)cc1	-2.2	2.0	-16.9	9.7	-4.5	?	-0.8
Cc1nc(NCC2CCCO2)[nH]c(=O)c1CCC(C)C (configuration not stated)	-7.2	1.9	-5.1	-2.3	-3.8	3064	6.6
Cc1oc(-c2ccccc2F)nc1CN1CCC(C(=O)NCCC2=CCCCC2)CC1	-2.3	9.0	-3.5	-1.6	-5.8	16085	4.4
COc1ccc(C(=O)N/N=C/c2sc(=O)n(Cc3cccc(C(=O)O)c3)c2Cl)cc1	.	.	-31.3	-1.9	.	5402	.
Cc1ccc(N2CCN(C(=O)C3CCC(=O)N(Cc4ccc(Cl)cc4)C3)CC2)c(C)c1 (configuration not stated)	7.3	4.9	-0.1	-0.3	0.0	4664	1.4
Cc1cc(NC(=O)Nc2ccc(F)cc2F)n(C)n1	2.7	0.1	-7.0	-5.3	3.8	2575	1.9

Quoted from the listing.
Mtb hypoxia rep result of Cc1nc(NCC2CCCO2)[nH]c(=O)c1CCC(C)C (configuration not stated) stands at -7.2
Sa ugtP lethal result of Cc1cc(NC(=O)Nc2ccc(F)cc2F)n(C)n1 stands at 3.8
Sa ugtP lethal result of CC(C)CNC(=O)CSc1nc(-c2cccs2)cc(C(F)(F)F)n1 stands at -1.0
PrP 5UTR inh result of O=C(NCCNC(=O)c1ccc(Cl)cc1Cl)c1ccco1 stands at 9.7

Returning to the listing; the 2 compounds before the break are reprinted first.
SMILES	Mtb hypoxia rep	Mtb hypoxia rep growth	PrP 5UTR inh	BJeLR lethal	Sa ugtP lethal	Bead autofluor	Sa RN4220 lethal
Cc1ccc(N2CCN(C(=O)C3CCC(=O)N(Cc4ccc(Cl)cc4)C3)CC2)c(C)c1 (configuration not stated)	7.3	4.9	-0.1	-0.3	0.0	4664	1.4
Cc1cc(NC(=O)Nc2ccc(F)cc2F)n(C)n1	2.7	0.1	-7.0	-5.3	3.8	2575	1.9
Cc1ccc(S(=O)(=O)NCC(c2ccc3c(c2)OCO3)N2CCOCC2)cc1 (configuration not stated)	6.0	8.3	-78.8	-2.7	4.1	5342	4.9
OC(CN1CCN(c2cccc(Cl)c2)CC1)c1ccccc1 (configuration not stated)	5.3	-2.5	-19.0	0.9	0.5	3247	1.8
C#CCOCCOCCOCCNc1nc(N2CCN(C(=O)C(C(C)O)n3cc(CCCCN)nn3)CC2)nc(N2CCN(C(=O)C(C(C)CC)n3cc(CCCN=C(N)N)nn3)CC2)n1 (configuration not stated)	-2.3	7.6	.	.	-1.1	.	-0.8
CN1C(=O)NC(c2ccccc2)C2=C1CN(c1cccc(C(F)(F)F)c1)C2=O (configuration not stated)	1.2	0.1	-5.2	4.4	-7.9	3099	0.6
O=C(CCCN1C(=O)/C(=C/c2cccs2)SC1=S)Nc1cccc(C(=O)O)c1	9.8	10.8	-28.5	-14.8	0.2	4420	5.1
CCOc1cccc2c1OC1(C)CC2NC(=O)N1c1ccc(OC)cc1 (configuration not stated)	.	.	-9.7	0.3	0.4	2680	3.7
CCOC(=O)c1ccc(N2C(=O)CC(NC3CCN(C(=O)c4ccc(F)cc4)CC3)C2=O)cc1 (configuration not stated)	.	.	-21.3	0.1	-2.1	4778	-0.6
CCCCCc1ccc(C2=NNC(=O)CC2)cc1	-0.9	-2.0	-32.9	-13.8	3.2	3391	3.7
C=CCNC(=O)c1cccc(NS(=O)(=O)c2ccc(Cl)cc2)c1	12.1	11.3	-43.3	3.7	2.8	4378	13.5
NS(=O)(=O)c1ccc(NC(=O)CSc2nnc(COc3ccccc3Cl)n2C2CC2)cc1	0.9	5.4	-17.6	.	-1.4	2514	5.3
CC(C)(C)C(=O)OC/C(N)=N/OC(=O)c1ccccc1	4.4	1.2	-11.7	4.1	3.2	6103	2.2
CC(=O)c1sc(NC(=O)C2COc3ccccc3O2)nc1C (configuration not stated)	-0.2	10.0	32.4	6.5	-10.9	4608	-0.9
CCCN1C(=O)/C(=C\c2ccncc2)SC1=Nc1ccccc1	2.3	0.0	10.0	-4.7	30.8	2566	-9.6
COCCCNc1nc2c([nH]1)c(=O)[nH]c(=O)n2C	.	.	-2.9	5.1	0.1	4069	2.6
Cc1cccc(NC(=O)C23CCC(C)(C(=NO)C2)C3(C)C)c1 (configuration not stated)	-2.4	13.9	.	.	-5.1	.	7.5
COc1ccc(-n2c(SCC(=O)NCc3ccco3)nc3sc4c(c3c2=O)CCN(C)C4)cc1	4.9	7.1	-5.0	-2.3	2.6	6294	-0.3
CCN(CC)C1CCN(c2nc3nonc3nc2NCCOC)C1 (configuration not stated)	0.7	5.7	-8.7	-5.3	4.5	4599	13.4
O=C(CSc1nccn1Cc1ccco1)Nc1cccc(F)c1	-5.2	-6.3	4.3	-5.7	3.9	?	1.4
O=C(CCCN1C(=O)/C(=C/c2ccc(F)cc2)SC1=S)NC1CCS(=O)(=O)C1 (configuration not stated)	17.6	15.5	-18.3	-6.9	6.1	5495	4.2
CCCNC(=O)CNC(=S)N(Cc1ccccc1F)C1CCCCC1	11.1	12.9	-2.5	-0.7	10.2	4299	5.8
CC(C)CCN(N=O)[C@@H](Cc1ccccc1)CN(N=O)[C@@H](Cc1ccccc1)CN(C)N=O	.	.	-2.0	6.5	.	3067	.
COc1ccc(NC(=O)NNC(=O)COc2ccc3ccccc3c2)cc1OC	-5.3	-0.5	13.4	-2.9	-5.0	?	-0.2
CCCN(S(=O)(=O)c1ccccc1F)S(=O)(=O)c1ccccc1Br	-1.3	1.1	-7.2	-1.7	3.9	3679	5.9
Cc1c(Cl)cccc1NC(=O)CSc1nnc(C)n1-c1ccccc1	4.1	12.2	-0.1	0.9	12.3	8129	5.9
CCN(CC)CCNCc1cc(Cl)c(OCC(=O)Nc2ccccc2)c(OC)c1	16.9	12.0	4.6	0.6	-2.9	4323	5.5

Whole records from above. Screens in order: Mtb hypoxia rep | Mtb hypoxia rep growth | PrP 5UTR inh | BJeLR lethal | Sa ugtP lethal | Bead autofluor | Sa RN4220 lethal
Shown for C=CCNC(=O)c1cccc(NS(=O)(=O)c2ccc(Cl)cc2)c1 → 12.1 | 11.3 | -43.3 | 3.7 | 2.8 | 4378 | 13.5
Shown for Cc1ccc(S(=O)(=O)NCC(c2ccc3c(c2)OCO3)N2CCOCC2)cc1 (configuration not stated) → 6.0 | 8.3 | -78.8 | -2.7 | 4.1 | 5342 | 4.9
Shown for CCOC(=O)c1ccc(N2C(=O)CC(NC3CCN(C(=O)c4ccc(F)cc4)CC3)C2=O)cc1 (configuration not stated) → . | . | -21.3 | 0.1 | -2.1 | 4778 | -0.6

Exported as comma-separated lines: part of the list above.
molecule,Mtb hypoxia rep,Mtb hypoxia rep growth,PrP 5UTR inh,BJeLR lethal,Sa ugtP lethal,Bead autofluor,Sa RN4220 lethal
Cc1noc(C)c1COc1ccc(C(=O)N2CCN(S(=O)(=O)c3ccc(Cl)cc3)CC2)cc1,-2.2,2.0,-16.9,9.7,-4.5,?,-0.8
O=C(c1cccc([N+](=O)[O-])c1)N1CCOCC1,10.3,11.1,-23.2,-13.0,10.2,2139,-0.3

Later entries:
SMILES	Mtb hypoxia rep	Mtb hypoxia rep growth	PrP 5UTR inh	BJeLR lethal	Sa ugtP lethal	Bead autofluor	Sa RN4220 lethal
CN1CCN(C2=NC(=O)/C(=C/c3cn[nH]c3-c3ccccc3)S2)CC1	3.7	8.3	-5.0	2.9	16.5	4668	4.2
CN(Cc1ccco1)C(=O)Cn1nc(-c2ccc(Cl)cc2)ccc1=O	3.8	7.8	-9.8	-1.3	-8.3	4317	-0.1
O=C(O)c1cc(S(=O)(=O)NCC2CCCO2)ccc1Cl (configuration not stated)	14.2	2.7	-25.8	-2.2	11.5	3017	4.1
CC(=O)N1c2c(cc(Br)cc2S(=O)(=O)N2CCN(c3ccccn3)CC2)CC1C (configuration not stated)	8.3	4.7	-12.6	-7.9	-0.3	3735	1.7
O=C(CC12CC3CC(CC(Br)(C3)C1)C2)NC1CCCC1	17.1	6.1	-21.4	-4.2	3.9	4380	4.6
CCS(=O)(=O)N1CCN(C(=O)c2cc(OC)cc(OC)c2)CC1	10.5	4.6	-18.0	-1.6	7.6	6864	-0.1
COc1cccc(NC(=O)CNC(=O)c2ccc([N+](=O)[O-])cc2)c1	1.5	-6.9	-7.6	-0.1	-0.1	4484	3.3
CCc1nnc(NC(=O)Cc2ccc(OCc3c(C)noc3C)cc2)s1	6.4	13.1	-6.2	-2.2	-2.5	4764	-0.4
Cc1cccc(C)c1N=Nc1c(C)cc(O)cc1C	13.0	-10.6	-8.3	24.4	85.4	.	-12.0
CCOC(=O)C1(Cc2cccc(OC)c2)CCN(CC=Cc2ccc(OC)cc2)CC1	3.4	6.8	.	.	-2.2	.	4.9
COc1cc(NS(=O)(=O)c2ccc(NC(=O)C=Cc3cccc([N+](=O)[O-])c3)cc2)ncn1	5.3	-4.8	.	.	-0.9	.	2.7
CCOC(=O)N1CCN(CCC(=O)Nc2cccc(Br)c2)CC1	1.4	2.5	-27.8&-15.5	-8.4&-2.8	0.2&0.6	?	3.5&-0.7
CCOc1ccc(/C=N/NC(=O)Nc2ccccc2)cc1	.	.	-149.6	12.2	.	4664	.
CC1CC(C)(C)NC(=S)N1CCCC(=O)Nc1ccc(Br)cc1 (configuration not stated)	-5.7	-5.4	3.9	-2.6	-2.6	3358	-2.8
COc1cc(NC(=O)CN2CCN(c3ccccc3F)CC2)cc(OC)c1	.	.	-13.4	.	-2.7	3706	-2.9
O=c1c2c3c(sc2n(CCN2CCOCC2)c(=O)n1Cc1ccco1)CCCCC3	-4.4	6.0	1.8	-6.0	-3.0	?	0.5
O=C(NCc1ccccc1)C1CCCN(c2ncnc3c2nc2n3CCCCC2)C1 (configuration not stated)	6.0	-3.2	4.6	9.4	8.0	3800	2.3
